HSF1 inhib = HSF1 inhibition. AID 2098. 300,000 compounds, 0.77% hits. NIH3T3-HGL HSE-luciferase, MG132-induced, luminescence 8 h; stronger effect = lower value. activity change, negative = inhibition, % at 7.5 µM (by protocol);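 active = more than half of replicate wells show activity change below -50%, luminescence cut by over half; inconclusive = some wells, but at most half, below -50%; inactive = no replicate well below -50%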;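 also: luciferase reports HSF-1 transcriptional activity via heat shock element; 0% = median of DMSO wells and -100% = zero luminescence signal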
KLF5 inhibitor = suppresses KLF5 promoter-driven expression; DLD-1 KLF5 promoter-luciferase reporter, luminescence; inhibition, % at 5 µM; 290,000 compounds, 0.23% hits; AID 1700;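 active = inhibition above a per-plate limit of that plate's mean compound inhibition plus 3 SD, cut at about 60% in these data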;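 also: 0% = DMSO wells and 100% = LY294002 at 200 µM; higher means less KLF5 promoter-driven luciferase light; inactives centre near -14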
IEC-6 tox = counter-screen for KLF5 inhibitors: cytotoxicity in IEC-6 cells; IEC-6 cytotoxicity, luminescence viability; inhibition, % at 5 µM; AID 1825; 290,000 compounds, 0.78% hits; in the data active = inhibition above about 22%;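 also: 0% = plate median of test compound wells and 100% = cytotoxic reference compound wells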
aSyn 5UTR inh = 5' untranslated region of α-synuclein, MLPCN primary screen; alpha-synuclein 5'UTR reporter, inhibitor activity; inhibition, % (tested at 7.5 µM); 300,000 compounds, 0.82% hits; in the data active = inhibition above about 60%; inconclusive = no clear call, values can overlap the other calls;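 also: H4 neuroglioblastoma cells stably carrying SNCA 5'UTR luciferase fusion; 0% = DMSO wells and 100% = positive control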
Platelet DG rel = modulates dense granule release in human platelets | inhibition, %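 (compounds screened at 7.5 µM in platelet-rich plasma)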 | human platelet-rich plasma, SFLLRN dense granule ATP release, luminescence | 300,000 compounds, 0.22% hits;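 active = mean replicate score, as percent of positive control, at or above 50; inconclusive = mean below 50 but at least one replicate at or above 50; inactive = mean and every replicate below 50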
SKKanGAS inh = blocks kanamycin growth of S. pyogenes SKKanGAS strain | BacTiter-Glo, 6 h | inhibition, % at 7.5 µM | 300,000 compounds, 1.3% hits;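 active = mean replicate score, as percent of positive control median, at least 50; inconclusive = mean below 50 but one replicate at or above 50; inactive = mean and every replicate below 50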;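 also: strain carries kanamycin resistance gene driven by streptokinase promoter and grows in 40 µg/ml kanamycin; loss of luminescence reflects streptokinase promoter inhibition or plain growth inhibition; 0% = median of DMSO wells and 100% = positive control at its reference dose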
HSF-1 act = increases HSF-1 driven luciferase reporter signal; NIH3T3-HGL HSF-1 luciferase reporter, MG132, 8 h; 100% = twice DMSO control signal; activation, % at 9 µM; 300,000 compounds, 1.7% hits; AID 504408;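 active = mean replicate activation of at least 50% with a set share of replicates each reaching 50%; inconclusive = only one of those two conditions met; inactive = mean below 50% and too few replicates reaching it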;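 also: 0% = median of the neutral control wells and 100% = twice that signal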
HSP90 inh = HSP90 refolding inhibition in rabbit reticulocyte lysate; inhibition, % at 5.6 µM; luciferase refolding luminescence, 3 h; 290,000 compounds, 0.91% hits;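 active = inhibition above the screen-wide mean plus 3 SD, computed separately per campaign, cut at about 16% in these data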;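 also: 0% = DMSO wells and 100% = 60 µM geldanamycin wells; inhibitors lower the luminescence because luciferase stays unfolded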
AI-2 QS mod = Vibrio harveyi AI-2 quorum sensing modulation; Vibrio harveyi JMH597 AI-2 luminescence/OD600 ratio, 9 h; stronger effect = lower value; strain lacks LuxN and CqsS sensors; 0 = neutral-control median; activity change, % at 7.5 µM; 300,000 compounds, 0.4% hits; in the data active = activity change below about -75%, passing the limit was not always enough; inconclusive = no clear call, values can overlap the other calls;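 also: luminescence divided by OD600 gain over 9 h not by final OD600 alone; inactives centre near 13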
Numbers without * were called inactive; ? = inconclusive; / = no result given; & = joins results of further samples. Not all compounds are listed; rates above refer to the full screens.

Results follow in this order: HSF1 inhib	KLF5 inhibitor	IEC-6 tox	aSyn 5UTR inh	Platelet DG rel	SKKanGAS inh	HSF-1 act	HSP90 inh	AI-2 QS mod
#1 CN1C[C@H](C(=O)NC2(C)OC3(O)[C@@H]4CCCN4C(=O)[C@H](Cc4ccccc4)N3C2=O)CC2c3cccc4[nH]cc(c34)C[C@H]21 (stereo partly specified)
    6	/	/	-39	-4	3	-4	/	13
#2 CNC(=O)CC(C(=O)O)c1ccc(OC(C)C)cc1 (stereo unspecified)
    -4	-13	0	10	9	-3	-11	0	9
#3 Cc1cccc2c1NC(C)CC2C (stereo unspecified)
    -10	-14	1	-3	/	3	-23	-5	/
#4 CNC(=O)c1cc2ccccc2o1
    4	-5	0	-27	3	-11	19	2	-7
#5 Clc1ccc(Cl)c(-c2ccc(/C=N/c3ncn[nH]3)o2)c1
    -3	15	1	-6	4	6	1	-1	8
#6 CCOC(=O)C1CCN(C(C)=C2C(=O)c3ccccc3C2=O)CC1
    0	0	4	11	-1	0	7	-1	35
#7 CCN(CC)CCCn1c(C)cc2c(c1=O)C(c1ccc(OC)c(OC)c1OC)C(C#N)=C(N)O2 (stereo unspecified)
    -1	-9	-2	-3	3	-2	4	-3	20
#8 Cc1ccc(S(=O)(=O)Oc2cc(N)c3c(n2)CCC3)cc1
    -4	-19	1	-2	13	2	-7	-2	23
#9 COC(=O)C1=C(C)NC(C)=C([N+](=O)[O-])C1c1ccccc1C(F)(F)F (stereo unspecified)
    2	-30	-7	-2	5	-4	8	-1	10
#10 O=C(O)c1cc([N+](=O)[O-])ccc1NCCCc1ccccc1
    5	/	/	-30	3	25	-5	/	34
#11 CCOC(=O)CSC1=C(C#N)C(=O)NC2(CCCCC2)S1
    -2	-47	-6	-11	15	-2	-3	0	27
#12 CCC1(C)Cc2c(C#N)c(N)sc(=S)c2CO1 (stereo unspecified)
    -6	-36	-2	28	-4	-1	-4	-2	16
#13 CN(C)C(=O)COn1c(SCC(=O)N(C)C)nc2ccccc2c1=O
    1	-22	6	24	-4	2	-6	6	18
#14 CC(C)Cc1nc(N2CCOCC2)c(C#N)c2c1CCC2
    -13	-30	-5	31	-3	4	8	0	9
#15 O=c1[nH]c2cc([N+](=O)[O-])c([N+](=O)[O-])cc2[nH]c1=O
    2	7	6	13	2	2	1	2	18
#16 Cc1cc(C)n(CC2CC(=O)N(c3cc(Cl)cc(Cl)c3)C2=O)n1 (stereo unspecified)
    -8	1	-10	1	0	-7	17	4	31
#17 COc1ccc2c(c1)nc(N)n2Cc1ccccc1
    -4	1	1	2	4	-1	-4	1	13
#18 NS(=O)(=O)Cc1noc2ccccc12
    -2	-33	2	16	-3	0	-6	-1	5
#19 COc1ccc(C2/C(=C(/O)c3ccc(OC(C)C)cc3)C(=O)C(=O)N2CCCN2CCOCC2)cc1 (stereo unspecified)
    0	-2	1	12	0	0	-10	0	41
#20 CC1CCc2cc(F)cc3c(=O)c(C(=O)O)cn1c23 (stereo unspecified)
    -2	-34	-1	2	-6	2	-7	-1	39
#21 Cc1cc(C)n(-c2c(F)c(F)c(CN3CCCCC3)c(F)c2F)n1
    3	8	-6	-9	0	0	2	1	10
#22 CCCCCc1nc2sc3c(c2c(=O)n1N)CCC3
    10	-8	-7	-30	?	-6	33	-4	27
#23 COc1cccc(COc2nc3c(c(=O)n(C)c(=O)n3C)n2C)c1
    0	-4	-6	-17	7	5	-15	0	5
#24 CCCCN1C[C@H](O)[C@@H](O)[C@H](O)[C@H]1CO
    5	9	7	9	0	-1	1	1	27
#25 C=C(C)[C@@H]1CC=C(C(=O)O)CC1
    -1	/	/	-30	-1	0	-21	/	2
#26 Cc1ccc(S(=O)(=O)NC(=O)NCc2ccc3c(c2)OCO3)cc1
    -3	1	-2	17	-5	-3	-11	2	16
#27 O=c1[nH]ccc2c(O)cccc12
    -8	/	/	-14	-2	-1	-16	/	-11
#28 O=C(Oc1ccccc1N1C(=O)CCC1=O)c1ccco1
    -14	-28	-5	8	4	0	-8	1	6
#29 CC(C)Cn1nc(NC(=O)C(C)(C)C)c2cc3ccccc3nc21
    -4	-22	-9	16	0	3	9	-5	31
#30 CCC(=O)Nc1ccc(-c2nnc(-c3ccccc3)o2)cc1
    25	-117	-6	-12	1	23	47	-2	12

5 records drawn at random from those above, as already listed:
Results follow in this order: HSF1 inhib	KLF5 inhibitor	IEC-6 tox	aSyn 5UTR inh	Platelet DG rel	SKKanGAS inh	HSF-1 act	HSP90 inh	AI-2 QS mod
#29 CC(C)Cn1nc(NC(=O)C(C)(C)C)c2cc3ccccc3nc21
    -4	-22	-9	16	0	3	9	-5	31
#23 COc1cccc(COc2nc3c(c(=O)n(C)c(=O)n3C)n2C)c1
    0	-4	-6	-17	7	5	-15	0	5
#20 CC1CCc2cc(F)cc3c(=O)c(C(=O)O)cn1c23 (stereo unspecified)
    -2	-34	-1	2	-6	2	-7	-1	39
#18 NS(=O)(=O)Cc1noc2ccccc12
    -2	-33	2	16	-3	0	-6	-1	5
#16 Cc1cc(C)n(CC2CC(=O)N(c3cc(Cl)cc(Cl)c3)C2=O)n1 (stereo unspecified)
    -8	1	-10	1	0	-7	17	4	31

Other records follow.
Results follow in this order: HSF1 inhib	KLF5 inhibitor	IEC-6 tox	aSyn 5UTR inh	Platelet DG rel	SKKanGAS inh	HSF-1 act	HSP90 inh	AI-2 QS mod
#31 COC(=O)c1sccc1NC(=O)c1c(C)cc(=O)oc1C
    -2	-2	-1	-2	12	-1	3	1	16
#32 Cc1c(C2Nc3ccccc3NC3=C2C(=O)CC(C)(C)C3)cnn1C (stereo unspecified)
    -2	-27	-1	4	3	4	9	2	9
#33 COCCNc1oc(-c2ccc(F)cc2)nc1C#N
    6	-31	6	-59	14	-2	11	2	17
#34 CC(NC(=O)NCCCC(=O)O)(C(F)(F)F)C(F)(F)F
    -12	-9	1	12	1	6	-14	-2	22
#35 Clc1ccc(-c2cn3c(n2)CCC3)cc1
    14	-100	5	-192	7	2	?	-2	0
#36 COc1ccc(C(=O)Nc2ccccc2N2CCOCC2)cc1Br
    1	-9	-6	-2	3	5	-5	0	45
#37 O=C1C2ON(c3ccccc3)C(c3ccncc3)C2C(=O)N1c1ccc(Br)cc1 (stereo unspecified)
    8	-12	-1	-22	-5	0	1	3	24
#38 CC(C[N+](C)(C)C)OC(N)=O (stereo unspecified)
    2	-11	9	-6	-7	-3	-1	1	7
#39 O=C(CN1CCc2[nH]c3ccccc3c2C1)N1CCCCC1
    -2	6	-2	15	11	-8	-6	0	16
#40 CC1(C)Cc2c(c(N3CCOCC3)nc3snc(N)c23)CO1
    -14	8	1	-169	3	0	-14	-5	29
#41 N#Cc1ccc(-c2cccnc2)nc1SCC(=O)Nc1sc2c(c1C#N)CCC2
    31	-14	10	-88	3	6	28	5	18
#42 COC(=O)C1=C(C)NC(C)=C(C(=O)OC(C)C)C1c1cccc2nonc12 (stereo unspecified)
    8	10	7	-8	4	-6	4	4	13
#43 Nc1ccc2cn[nH]c2c1
    -7	-26	-1	-7	0	-3	-15	-1	17
#44 Cn1c(NCCN2CCCCC2)cc(=O)n(C)c1=O
    -1	-32	0	-19	14	-4	19	5	19
#45 CCCCCCn1c(SCCN2CCOCC2)nc2c1c(=O)[nH]c(=O)n2C
    5	-12	13	21	/	1	29	4	6

The final seven compounds of the section before open the next one:
Results follow in this order: HSF1 inhib	KLF5 inhibitor	IEC-6 tox	aSyn 5UTR inh	Platelet DG rel	SKKanGAS inh	HSF-1 act	HSP90 inh	AI-2 QS mod
#39 O=C(CN1CCc2[nH]c3ccccc3c2C1)N1CCCCC1
    -2	6	-2	15	11	-8	-6	0	16
#40 CC1(C)Cc2c(c(N3CCOCC3)nc3snc(N)c23)CO1
    -14	8	1	-169	3	0	-14	-5	29
#41 N#Cc1ccc(-c2cccnc2)nc1SCC(=O)Nc1sc2c(c1C#N)CCC2
    31	-14	10	-88	3	6	28	5	18
#42 COC(=O)C1=C(C)NC(C)=C(C(=O)OC(C)C)C1c1cccc2nonc12 (stereo unspecified)
    8	10	7	-8	4	-6	4	4	13
#43 Nc1ccc2cn[nH]c2c1
    -7	-26	-1	-7	0	-3	-15	-1	17
#44 Cn1c(NCCN2CCCCC2)cc(=O)n(C)c1=O
    -1	-32	0	-19	14	-4	19	5	19
#45 CCCCCCn1c(SCCN2CCOCC2)nc2c1c(=O)[nH]c(=O)n2C
    5	-12	13	21	/	1	29	4	6
#46 COc1cccc(-c2nn3c(-c4ccccn4)nnc3s2)c1
    6	-24	-2	-30	5	1	5	2	16
#47 CCCN1C[C@H](CSC)C[C@@H]2c3cccc4[nH]cc(c34)C[C@H]21
    3	-8	4	-7	0	1	0	0	13
#48 C=CCOn1c(=O)c(-c2cc3ccccc3o2)[n+]([O-])c2ccccc21
    13	-58	14	-144	-1	8	37	-1	47
#49 CCOC(=O)CSC1=C(C#N)C(c2ccc(C)cc2)C(C(=O)OC)C(=O)N1 (stereo unspecified)
    -2	-24	-2	-1	10	4	7	2	6
#50 COc1cc(=O)n2c(-c3ccccc3)csc2n1
    4	-24	-2	11	4	6	-6	0	8
#51 CCCNC(C)C(=O)Nc1ccccc1C (stereo unspecified)
    1	5	3	0	11	-5	-9	0	17
#52 O=C(NCC(F)(F)F)N1CCOCC1
    1	2	6	-3	-1	-2	20	4	14
#53 COc1ccc(C(CC(=O)N2CCOCC2)C(C)C)cc1 (stereo unspecified)
    -8	-8	-8	3	8	3	-7	0	17
#54 CCCSc1nc(O)c(C2OC(=O)c3c2ccc(OC)c3OC)c(=O)n1C (stereo unspecified)
    -2	8	0	6	-5	4	-3	2	11
#55 O=S(=O)(N[C@@H]1C[C@H]2CC[C@@H]1C2)c1cccs1
    -5	-34	1	12	-3	16	11	-2	16
#56 O=c1[nH]c(CN(CCO)CCO)nc2c1C1(CCCCC1)Cc1ccccc1-2
    -5	-2	1	4	/	-4	1	-1	7
#57 CC1(C)NC(=O)N(CC(O)Cn2nnc3ccccc32)C1=O (stereo unspecified)
    -7	20	7	-8	1	1	-18	5	3
#58 CC(=O)C1=C(O)C(=O)N(Cc2cccnc2)C1c1ccccc1Cl (stereo unspecified)
    1	-36	4	-6	1	-6	-14	0	-2
#59 COc1ccc(-c2nc3n(c2Br)CCC3)cc1
    17	-124	-4	-122	-66	1	26	-3	59
#60 NS(=O)(=O)c1cc2c(cc1Cl)NC(C(Cl)Cl)NS2(=O)=O (stereo unspecified)
    6	-15	-9	0	-3	1	-5	-1	12
#61 Nc1nc(Cl)nc2c1ncn2[C@H]1C[C@H](O)[C@@H](CO)O1
    -8	19&15	90*	84*	-4	0	-13	0&-2	-158*
#62 C[N+]1(CCNC(=O)/C=N/O)CCCCC1
    0	-15	-2	24	-2	-3	8	-3	20
#63 CN(C)CCCNCCCCNC(=O)/C=N/O
    -3	-31	4	0	-3	1	-14	-2	-2
#64 CC1N(O)C(c2ccc(Cl)cc2Cl)N(O)C1(C)C (stereo unspecified)
    -5	-22	2	4	68*	-2	5	-1	30
#65 COc1c(NC(C)=O)c2ccccc2c2ccccc12
    2	-4	-8	10	1	-10	-10	1	12
#66 Cc1cc(C)n(CC(=O)N2c3ccccc3Sc3ccccc32)n1
    6	-15	-3	0	0	-2	27	-2	3
